RecA intein inh – inhibitors of M. tuberculosis RecA intein splicing; cell-free RecA intein splicing, fluorescence; P9WHJ3; hit rate 0.75% among 290,000; inhibition, %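 (about 9 µM by stock and volumes)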; in the data active = inhibition above about 30%; inconclusive = no clear call, values can overlap the other calls;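 also: 0% = vehicle wells and 100% = reference inhibitor control wells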
Target sequence (P9WHJ3 whole entry, looked up): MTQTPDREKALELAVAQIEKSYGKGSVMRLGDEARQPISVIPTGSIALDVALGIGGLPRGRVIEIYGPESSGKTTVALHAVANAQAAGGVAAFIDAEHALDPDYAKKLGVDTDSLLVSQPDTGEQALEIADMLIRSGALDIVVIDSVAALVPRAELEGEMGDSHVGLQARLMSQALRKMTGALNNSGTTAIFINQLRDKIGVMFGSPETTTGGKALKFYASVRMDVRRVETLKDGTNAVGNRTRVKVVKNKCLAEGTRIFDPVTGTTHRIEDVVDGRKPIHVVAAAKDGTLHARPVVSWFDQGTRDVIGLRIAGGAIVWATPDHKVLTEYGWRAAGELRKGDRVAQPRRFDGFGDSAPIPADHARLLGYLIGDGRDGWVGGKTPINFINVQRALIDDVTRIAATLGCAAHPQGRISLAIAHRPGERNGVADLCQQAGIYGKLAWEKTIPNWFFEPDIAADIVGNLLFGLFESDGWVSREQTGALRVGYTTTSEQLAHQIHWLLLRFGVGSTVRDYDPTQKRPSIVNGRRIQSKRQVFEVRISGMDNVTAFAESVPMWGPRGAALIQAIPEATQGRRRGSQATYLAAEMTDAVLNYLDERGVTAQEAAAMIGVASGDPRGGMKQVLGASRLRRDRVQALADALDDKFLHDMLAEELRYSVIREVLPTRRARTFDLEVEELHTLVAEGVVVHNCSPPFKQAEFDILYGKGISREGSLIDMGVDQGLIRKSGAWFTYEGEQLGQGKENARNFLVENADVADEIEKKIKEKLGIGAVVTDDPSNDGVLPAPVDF
Mtb bLac sens – beta-lactam sensitization of Mtb H37Rv | M. tuberculosis H37Rv growth with meropenem, percent inhibition; hits of this screen are not shown here | inhibition, % at 25 µM | hit rate 0.27% among 330,000;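 active = about 74% or more and at least 40 points above the plate without the antibiotic, then above 30% in a dose series; inconclusive = first-round hits that could not be retested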;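 also: growth measured after seven days incubation then overnight dye step; 0% = bacteria only wells and 100% = bacteria with antibiotic; twin plates without the antibiotic show which effects depend on it; some results filed as inactive read as strong as hits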
YopH inh – inhibitors of Yersinia enterocolitica YopH tyrosine phosphatase | AID 898 | inhibition, %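 (about 10 µM by stock and volumes)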 | hit rate 0.16% among 140,000 | fluorescence Ex485/Em525;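 active = inhibition of 50% or more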;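 also: controls were vehicle for no effect and minimum signal wells for full effect; inactives centre near -20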
Mtb H37Rv – M. tuberculosis H37Rv growth inhibitors, H37Rv strain (AID 1626); M. tuberculosis H37Rv growth inhibition; higher % means a stronger effect; inhibition, % at 10 µM, or IC50 in µM where a hit was titrated; hit rate 0.95% among 220,000;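 active = confirmed in a dose series; inconclusive = inhibition above 80% but not taken into the dose series; inactive = below 80% or under 30% at every dose of the series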;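 also: bacteria incubated seven days before Alamar blue readout; 0% = bacteria only wells and 100% = bacteria with antibiotic wells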
Arbovirus inh – blocks arbovirus infection. arbovirus infection cell-based antiviral screen. inhibition, % at 10 µM. hit rate 0.37% among 200,000. AID 1251;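 active = inhibition from about 30%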;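 also: bluetongue infection of BSR cells; cell survival read as ATP light after 72 h; 0% = infected wells without compound and 100% = uninfected wells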
Arbovirus inh repeat – also measured in Arbovirus inh; calls as there; inhibition, %; measured here: 10K subset replicate screen; many hits read low in the repeat;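 first of two repeat runs on a subset; 0% = infected and 100% = uninfected wells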
Starred values were filed as active, the others as inactive; ? = inconclusive; nt = no result given.

SMILES	RecA intein inh	Mtb bLac sens	YopH inh	Mtb H37Rv	Arbovirus inh	others
O=[N+]([O-])c1ccc2c(c1)C=C1CCCCC1(N1CCCC1)O2 (centres undefined)	-0.8	-2	-47	9%	5
COc1ccc(S(=O)(=O)N(C)CC(=O)N2CCCC2)cc1OC	-2.5	-4	nt	nt	nt
CCOc1ccc(C(=O)C[n+]2ccc(C(=O)NCc3ccccc3)cc2)cc1	7.1	-3	nt	5%	10
CC1(c2ccc3ccccc3c2)NC(=O)N(CC(=O)NCC(C)(C)N2CCOCC2)C1=O (centres undefined)	-0.8	-9	nt	nt	nt
CCc1nc(Nc2ccc3nccnc3c2)c2oc3ccccc3c2n1	nt	-5	-43	3%	0
CC1(C(=O)NC(=S)N(Cc2ccccc2)c2ccccn2)CC1(Cl)Cl (centres undefined)	2.9	10	-22	2%	-1
COc1ccc(CCNC(=O)C2CCN(S(=O)(=O)c3cccc4nonc34)CC2)cc1OC	2.1	-1	0	3%	-1
CC(=O)N(c1nnc(-c2cccc(C)c2)s1)C1CCCC1	-2.7	3	nt	nt	nt
CC1=C(n2nnc([N+](=O)[O-])n2)C(c2cccnc2)C(C#N)=C(N)O1 (centres undefined)	-4.7	2	9	1%	-4
COCCN(C(=O)COC(=O)c1cc2ccccc2cc1OC)c1c(N)n(Cc2ccccc2)c(=O)[nH]c1=O	0.1	-6	nt	nt	nt
CC1CCN(c2nc3c(=O)[nH]c(N)nc3n2[C@@H]2O[C@H](CO)[C@@H](O)[C@H]2O)CC1	1.4	-4	nt	nt	nt
Cc1ccc(C(=O)OCC(=O)N2CCC(c3ccccc3)=N2)c(C)c1	-2.9	-3	nt	nt	nt
CCOC(=O)c1nc(C)nc(Sc2n[nH]c(-c3cc(Cl)cc(Cl)c3)n2)c1C	1.0	1	nt	-7%	nt
Cc1ccc(NC(=O)CSc2ncccn2)c([N+](=O)[O-])c1	-0.4	-2	nt	8%	19
CC(C)(C)NC(=O)NC(=O)CN1CCN(c2ncc(C(F)(F)F)cc2Cl)CC1	0.3	-3	5	11%	7
CCOC(=O)N1CCN=C1SCc1ccc(C(F)(F)F)cc1	11	86	nt	>100µM*	3
COc1ccc(NC(=S)NCCSc2ccc(C)cc2)c(OC)c1	4.8	-7	-26	0%	nt
CC(=O)N1CCC(=NNc2nc3ccccc3s2)CC1	-4.5	100	nt	33%	-2
CCOC(=O)CC1C(=O)NCCN1S(=O)(=O)c1ccc(Cl)cc1Cl (centres undefined)	nt	-1	-31	-9%	-1
O=C(NC1CCCCCC1)C1CCN(c2nc3ccccc3o2)CC1	-6.1	29	-24	nt	0
COc1ccc(NCc2ccc([N+](=O)[O-])s2)c(OC)c1	nt	60	76*	80%	-8
COc1ccc(CNC(=O)COC(=O)c2ccccc2OCC(=O)Nc2ccc(SC(F)F)cc2)cc1	0.7	-4	nt	-6%	nt
COCc1ccc(C(=O)N(C)C2CCCN(Cc3ccccc3F)C2)o1 (centres undefined)	-1.8	-3	nt	nt	nt
CCOc1ccc(NC(=S)N2CCC(C(N)=O)CC2)cc1	2.6	-2	-46	1%	4
CCc1ccc(/C=N/Nc2ncnc3nc[nH]c23)cc1	-3.2	-6	nt	nt	nt
O=C1CSC(c2ccccc2F)N1CCN1CCCCC1 (centres undefined)	1.7	-10	-32	0%	3
O=C1CCN(Cc2ccccc2)CCN1[C@H](CSc1ccccc1)Cc1ccccc1	7.0	-8	nt	nt	nt
COc1ccc2ncn(-c3ccccc3)c2c1	-0.1	6	-39	0%	8
CN(Cc1ccc(F)cc1Cl)S(=O)(=O)c1cccs1	6.1	0	nt	nt	nt
Cc1nn(-c2ccc(Cl)cc2)c(NC(=O)C(C)C)c(-c2ccccc2)c1=O	-1.2	-2	nt	-2%	nt
COc1cccc(C(C(=O)NCc2ccco2)N(C(=O)Cn2nnc3ccccc32)C2CC2)c1OC (centres undefined)	17	-10	7	0%	-4
COc1ccccc1Nc1ccc(C(=O)NCc2cccs2)cn1	1.9	-3	nt	1%	-3
CCN1C(=O)/C(=C\c2cccn2-c2ccc([N+](=O)[O-])cc2)N(CC)C1=S	-0.1	21	-28	-2%	-13
COc1ccc(NC(=O)CSc2ccc3nnc(-c4cccnc4)n3n2)cc1OC	-4.8	?	nt	nt	nt
CCn1c2ccccc2c2cc(/C=N/n3c(-c4cc(C)[nH]n4)n[nH]c3=S)ccc21	nt	41	nt	3%	nt
COc1ccc(S(=O)(=O)NNC(=O)c2cc3ccccc3o2)cc1	1.6	7	-36	-1%	-6
Cc1nc(N)sc1-c1csc(Nc2ccc(Cl)cn2)n1	13	4	-3	4%	10
COc1ccc(/C(C)=N/NC(=O)c2ccc(NS(=O)(=O)c3cccs3)cc2)cc1	-7.9	0	nt	2%	nt
Cc1cc(=O)c2c(o1)CC(C)(C)CC2=O	-1.3	11	-12	-3%	2
Cc1ccc2oc(Nc3nc(-c4ccccc4)cc(=O)[nH]3)nc2c1	3.4	nt	nt	73%	-11
NS(=O)(=O)c1cccc(NC(=O)C2CC(=O)N(Cc3ccco3)C2)c1 (centres undefined)	-0.4	1	nt	-1%	nt
Cc1cccc(CC(=O)N2CCN(C(=O)c3ccco3)CC2)c1	0.2	-15	nt	nt	nt
Cc1ccc(-n2c(=O)c3sccc3n(CC(=O)N3CCCC3)c2=O)cc1	-2.8	-7	-21	-10%	3
COc1ccc(OC)c(C2NC(=S)NC(C)=C2C(=O)Nc2ccccn2)c1 (centres undefined)	0.5	-9	nt	2%	8
Cc1cc(C)c(NC(=O)CN2CCC(NC(=O)NC3CCCCC3)CC2)c(C)c1	-0.8	-9	nt	-1%	-2
COc1cc(/C=N/NC(=O)COc2cc(C)cc(C)c2)ccc1OS(=O)(=O)c1ccc(C)cc1	-0.9	4	-11	11%	-20
Cn1cc(S(=O)(=O)N2CCN(Cc3ccccc3)CC2)c(=O)n(C)c1=O	0.4	4	-27	3%	1	Arbovirus inh repeat=2
O=C(NNC(=O)c1nn(-c2ccc(F)cc2)ccc1=O)c1ccccc1Cl	-1.1	0	nt	-3%	nt

Taken from above, four compounds:
SMILES	RecA intein inh	Mtb bLac sens	YopH inh	Mtb H37Rv	Arbovirus inh	others
Cc1cc(=O)c2c(o1)CC(C)(C)CC2=O	-1.3	11	-12	-3%	2
Cc1ccc2oc(Nc3nc(-c4ccccc4)cc(=O)[nH]3)nc2c1	3.4	nt	nt	73%	-11
NS(=O)(=O)c1cccc(NC(=O)C2CC(=O)N(Cc3ccco3)C2)c1 (centres undefined)	-0.4	1	nt	-1%	nt
Cc1cccc(CC(=O)N2CCN(C(=O)c3ccco3)CC2)c1	0.2	-15	nt	nt	nt

(continued)
SMILES	RecA intein inh	Mtb bLac sens	YopH inh	Mtb H37Rv	Arbovirus inh	others
O=C1CSC(c2ccc(F)c(F)c2)N1c1ccccc1F (centres undefined)	-1.6	-3	nt	nt	nt
CSc1ccccc1N1CCN(C(=O)Nc2ccc3c(c2)NC(=O)CO3)CC1	1.9	-7	-13	-8%	-4
Cc1csc(=Nc2cccnc2)n1CC1CCCCC1	6.1	10	-22	11%	5
O=C(OCC(=O)N1CCN(c2ccccc2)CC1)c1cccc(Cl)c1	-1.7	-12	-27	-15%	-2
CN1C(=O)[C@@H]2[C@@H]3C[C@@H]([C@H]4ON=C(c5ccccc5OCC#N)[C@@H]34)[C@@H]2C1=O	-0.4	-3	nt	-6%	nt
CCOc1ccc(N(CC(=O)Nc2ccc(C)cc2)S(C)(=O)=O)cc1	-0.1	-1	nt	nt	nt
Cn1c(CC(=O)Nc2ccc(Cl)c(Cl)c2)nnc1SCC(=O)NCc1ccccc1	-1.4	0	nt	4%	2
NS(=O)(=O)c1ccc(-c2ccc(/C=C3\C(=O)Nc4cc(Cl)ccc43)o2)cc1	15	nt	nt	5%	-7
Clc1ccc(-c2cc3ccccc3[nH]2)cc1	7.0	-2	-33	-10%	12
CCOc1ccccc1C(=O)N[C@H](C(=O)OCc1cc([N+](=O)[O-])cc2c1OCOC2)C(C)C	-1.0	-14	-16	6%	-10
O=C1NCCCC1C(=O)NCCN1C(=O)CCC1=O (centres undefined)	1.8	-4	-54	-6%	-5	Arbovirus inh repeat=3
Cc1ccc(/C=N/N2CCN(Cc3cccc4ccccc34)CC2)o1	-0.1	-8	-8	4%	-22
COc1ccc(Cc2nnc(NC(=O)C3CC(=O)N(c4ccc(OC)cc4)C3)s2)cc1 (centres undefined)	1.5	11	nt	nt	nt
CCN(CC)S(=O)(=O)c1ccc(N2CCOCC2)c(NC(=O)C(=O)c2c(-c3ccccc3)cc3ccccn23)c1	0.9	7	-11	-4%	-6
COc1ccc(CCNC(=O)c2cc(S(=O)(=O)N(C)C)ccc2N2CCCC2)cc1OC	3.1	-7	nt	nt	nt
CN1C(c2ccccc2)=NO[C@]1(C)c1ccccc1	3.0	3	nt	nt	nt
Cc1cc(NC(=O)CCC(=O)N(CC(=O)NC2CCCC2)c2ccccc2)no1	-0.3	3	-14	4%	3
Cc1cc(C)cc(NC(=O)CSCc2nc3c(nnn3Cc3ccc(F)cc3)c(=O)[nH]2)c1	-2.1	-5	-5	-3%	nt
O=[N+]([O-])c1ccc(NCCCO)c(C(F)(F)F)c1	2.6	-6	-42	4%	2
Cc1ccc(OCCCC(=O)Nc2ccc(S(N)(=O)=O)cc2)cc1	0.0	-2	nt	-1%	-4
CCOC(=O)c1nn(-c2ccc(C)cc2)cc1C(=O)c1ccccc1	3.6	0	-16	6%	-6
CNC(=S)NNC(=O)c1ccc2c(c1)OCO2	-2.8	4	nt	-8%	-2
CCCC(CCC(=O)Nc1cccc([N+](=O)[O-])c1)C(=O)O (centres undefined)	1.3	4	nt	-13%	nt
COc1ccc(-n2c(=O)c(NC(=O)c3ccccc3)c3n(c2=S)CCCCC3)cc1	-1.0	-4	nt	0%	1
c1nc(N2CCCC2)c2[nH]cnc2n1	2.4	4	30	-4%	2
O=C(Cn1cnc2c(nnn2Cc2ccc(F)cc2)c1=O)NCc1ccccc1	-6.5	4	nt	-6%	nt
CN(C)c1ccc(C(=O)NCCCSc2ccccc2)cc1	0.5	-11	nt	nt	nt
COc1cc2ccccc2cc1C(=O)OCC(=O)NC1CCS(=O)(=O)C1 (centres undefined)	-6.2	-1	nt	-9%	16
O=c1c(-c2ccc(Cl)cc2)coc2c(CN3CCOCC3)c(O)ccc12	-0.8	2	-27	-2%	-5
NS(=O)(=O)c1ccc(NC(=O)CSc2ncnc3ccccc23)cc1	5.9	-3	nt	2%	-2
CSCC[C@H](NS(=O)(=O)c1ccc(C(C)=O)cc1)c1nnc2ccccn12	0.9	9	nt	nt	nt
CC(C)C(=O)Nc1c(C(=O)N2CCN(c3ncccn3)CC2)oc2ccccc12	1.9	3	nt	nt	nt
CC1N=C(c2ccccc2Cl)c2cc(Br)ccc2NC1=O (centres undefined)	4.4	-2	nt	nt	nt
CC(=O)c1sc(=S)n(Cc2ccccc2)c1C	-2.8	1	nt	nt	nt
CCNC(=O)C1(c2ccccc2)CCCC1	nt	-2	-9	-6%	4
COc1ccc(OC)c(-c2csc(NC(=O)c3ccc(F)cc3)n2)c1	-2.4	11	nt	nt	nt
Cc1ccc(N/C=C/C(=O)c2ccccc2)cc1Br	-1.7	96	nt	nt	nt
CCOC(=O)N1C2C=C(C)[C@@H]2[C@@H]2CC(=O)N21 (some centres undefined)	4.1	3	-29	-3%	-2
Cc1ccc(S(=O)(=O)NCCSCc2ccccc2)cc1	3.3	0	-21	10%	4
O=C(Nc1ccc(Br)cc1)N1CCCCC1	-1.7	-10	nt	-6%	-6
O=C(Nc1ccc(Cc2ccncc2)cc1)c1cc(F)c(F)cc1Cl	2.9	19	nt	0%	-21
O=C(CSc1nnc(-c2ccccc2)o1)N1CCN(c2ccccc2)CC1	-0.4	-4	-20	-2%	10
CCN(CC)S(=O)(=O)c1ccc(O)c(NC(=O)c2cc(-c3cc(OC)c(OC)c(OC)c3)nc3ccccc23)c1	-2.4	3	nt	nt	nt
CCOC(=O)CN1C(=O)NC2NC(=O)NC21 (centres undefined)	-1.1	-7	-27	2%	4
CC(=O)Nc1cccc(OC(=O)COc2ccc(Br)cc2)c1	35*	3	-32	-1%	7
O=C(O)/C=C/C(=O)NNc1ccc([N+](=O)[O-])cc1	0.2	1	nt	?	-24
COC(=O)c1ccc(C(=O)N(C)C2CCCN(Cc3ccccc3F)C2)cc1 (centres undefined)	1.0	0	nt	nt	nt
Cc1ccccc1NC(=S)N1CCCC(c2nc3ccccc3[nH]2)C1 (centres undefined)	-6.6	-2	nt	1%	6
O=C(COC(=O)c1cccc(S(=O)(=O)Nc2ccc(F)cc2)c1)NCCN1C(=O)CSC1=O	0.2	-5	nt	nt	nt
O=c1cc(C(F)(F)F)nc(SCc2cccnc2)[nH]1	2.2	?	nt	nt	nt
COC(=O)C[C@H]1c2cc(C(F)(F)F)ccc2S(=O)(=O)N1C(C)(C)C	12	28	nt	-9%	nt

The list is partial; the hit share may differ from the screen's.
